Assay outcomes from PubChem BioAssay.
KCNQ2 enhance: potentiators of rat KCNQ2 potassium channel. Potassium voltage-gated channel subfamily KQT member 2 (Rattus norvegicus), O88943. B-score at 10 µM. AID 2239, 2010. CHO-K1 KCNQ2, FluxOR thallium flux fluorescence; stronger effect = higher value. 0.54% of 310,000 active;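 active = fluorescence ratio B-score at least 3 SD of library B-scores, with initial fluorescence B-score within 3 SD, cut at about 5.3 in these data; same plate scores as AID 2156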;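 also: B-score of peak minus minimum over baseline fluorescence ratio after K+ and Tl+ stimulus; positive B-score means potentiation of KCNQ2 with more thallium influx and brighter signal; only the inactives scoring about 0 or higher are listed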
Target sequence (O88943 whole entry, looked up): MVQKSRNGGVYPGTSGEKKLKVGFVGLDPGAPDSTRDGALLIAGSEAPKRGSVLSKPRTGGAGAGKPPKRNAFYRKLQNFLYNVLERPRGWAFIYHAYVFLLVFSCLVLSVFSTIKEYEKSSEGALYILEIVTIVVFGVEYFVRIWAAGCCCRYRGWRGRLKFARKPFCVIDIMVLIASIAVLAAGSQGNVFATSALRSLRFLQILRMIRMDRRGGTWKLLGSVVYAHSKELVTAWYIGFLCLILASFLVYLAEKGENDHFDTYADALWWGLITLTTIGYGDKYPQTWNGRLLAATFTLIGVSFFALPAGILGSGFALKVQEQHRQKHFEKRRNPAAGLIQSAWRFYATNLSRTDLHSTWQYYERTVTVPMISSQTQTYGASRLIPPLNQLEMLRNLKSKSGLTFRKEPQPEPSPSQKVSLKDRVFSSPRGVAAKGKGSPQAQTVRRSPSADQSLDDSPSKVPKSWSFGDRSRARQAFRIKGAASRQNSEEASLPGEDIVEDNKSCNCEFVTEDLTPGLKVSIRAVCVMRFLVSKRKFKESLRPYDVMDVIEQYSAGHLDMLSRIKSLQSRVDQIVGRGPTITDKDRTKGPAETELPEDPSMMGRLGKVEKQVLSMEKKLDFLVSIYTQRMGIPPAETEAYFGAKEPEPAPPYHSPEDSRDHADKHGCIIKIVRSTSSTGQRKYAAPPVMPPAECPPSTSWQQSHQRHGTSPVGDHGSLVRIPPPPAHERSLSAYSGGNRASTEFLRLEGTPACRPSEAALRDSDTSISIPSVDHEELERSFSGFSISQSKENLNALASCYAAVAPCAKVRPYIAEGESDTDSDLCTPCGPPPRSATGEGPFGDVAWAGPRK
KCNQ2 enhance baseline: also measured in KCNQ2 enhance; calls as there; B-score; compound at 10 µM; measured here: initial fluorescence intensity artifact check;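 brightness before thallium and not channel activity; 0 = typical well and far values either way flag optical interference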
The depositor's hits bear a star. A portion of the library; the hit share may differ from the screen's.

SMILES	KCNQ2 enhance	KCNQ2 enhance baseline
CCc1ccc(C2CC(=O)NC(SCC(=O)OC(C)C)=C2C#N)cc1 (stereo not given)	0.29	1.45
COc1ccc(NC(=O)C2CCN(S(=O)(=O)c3c(C)noc3C)CC2)cc1Cl	0.68	-3.14
CC(=O)Nc1ccc(N2C(=O)CC(Sc3nccc(C)n3)C2=O)cc1 (stereo not given)	0.67	0.04
CCCc1nn2c(=O)cc(CSCC(=O)Nc3ccc(F)cc3)nc2s1	0.05	0.97
COc1ccccc1C(CNc1ccc(S(=O)(=O)N2CCCC2)cc1[N+](=O)[O-])N(C)C (stereo not given)	0.86	1.39
CCOC(=O)c1ccc(N/C=C2/CCCC(C)C2=O)cc1 (stereo not given)	1.53	-0.58
O=[N+]([O-])c1cccnc1N/N=C/c1ccccc1O	0.84	1.36
CC(NC(=O)c1ccco1)c1nc(-c2ccccc2Cl)no1 (stereo not given)	0.89	-0.79
COc1cc(OC)cc(C(=O)Nc2ccc(Cn3ccnc3)cc2)c1	0.47	0.65
O=C(Cc1ncc(C(F)(F)F)cc1Cl)NCc1ccco1	0.66	-0.47
CCn1cc(/C=N/NC(=O)c2ccc3c(c2)OCO3)c(C)n1	6.3*	0.52*
COc1ccc(CCN2C(=O)c3cccc4c(C(=O)N5CCCCC5)ccc(c34)C2=O)cc1OC	0.08	0
COc1cc(/C=N/NC(=O)c2ccc(C)nc2)cc([N+](=O)[O-])c1O	0.57	2.02
COC(=O)N/N=C(\C)c1ccc(OC(F)F)cc1	0.21	-0.69
Cc1cc(S(=O)(=O)Nc2cccnc2)c(C)s1	0.08	-0.44
CCSc1nnc(NC(=O)c2cccc(OCc3c(C)noc3C)c2)s1	0.81	0.2
CCCNC(=S)N1CCCC(c2nc3ccccc3[nH]2)C1 (stereo not given)	0.67	0.2
COC(=O)c1cc2n(n1)CCN(Cc1cccc(OC)c1)C2=O	0.72	1.01
COc1ccccc1N1CCN(CC(O)COc2ccc(S(=O)(=O)N3CCOCC3)cc2)CC1 (stereo not given)	0.16	0.71
Cc1oc(-c2ccccc2F)nc1CS(=O)(=O)CC(=O)NCCCc1ccccc1	1.2	-0.31
COc1cccc(C2C(C(=O)NCc3ccccc3)=C(C)Nc3ncnn32)c1 (stereo not given)	0.79	-0.24
CCCc1nc(NCCCOCC)c2nnn(Cc3ccccc3)c2n1	0.36	-0.79
Cc1cc(C)c(C(=O)CN2C(=O)NC3(CCCCC3)C2=O)cc1C	0.03	-1.27
CCOc1ccc(N(CC(=O)NCc2ccccc2Cl)S(=O)(=O)c2c(C)[nH]c(=O)[nH]c2=O)cc1	0.8	-1.15
COc1ccc(Cl)cc1NC(=S)Nc1ccccc1C	0.54	-1.24

Overlap with the part before: 6 compounds, followed by the next part.
SMILES	KCNQ2 enhance	KCNQ2 enhance baseline
Cc1oc(-c2ccccc2F)nc1CS(=O)(=O)CC(=O)NCCCc1ccccc1	1.2	-0.31
COc1cccc(C2C(C(=O)NCc3ccccc3)=C(C)Nc3ncnn32)c1 (stereo not given)	0.79	-0.24
CCCc1nc(NCCCOCC)c2nnn(Cc3ccccc3)c2n1	0.36	-0.79
Cc1cc(C)c(C(=O)CN2C(=O)NC3(CCCCC3)C2=O)cc1C	0.03	-1.27
CCOc1ccc(N(CC(=O)NCc2ccccc2Cl)S(=O)(=O)c2c(C)[nH]c(=O)[nH]c2=O)cc1	0.8	-1.15
COc1ccc(Cl)cc1NC(=S)Nc1ccccc1C	0.54	-1.24
CC(=O)c1ccc(NC(=O)c2ccc(NC(=O)c3ccco3)cc2)cc1	0.11	-1.22
CCC(Oc1ccccc1)C(=O)Nc1nc2c(s1)C(=O)CC(C)(C)C2 (stereo not given)	0.13	0.35
O=C(NCC1CCCO1)c1cccc(NS(=O)(=O)c2ccc(Br)cc2)c1 (stereo not given)	1.4	-0.04
Cc1ccc(S(=O)(=O)N(C)c2ccc(OCC(=O)OCC(=O)N(CC#N)c3ccccc3)cc2)cc1	0.55	-0.01
CC1(C)CC(=O)C(C=Nc2cccnc2/N=C/C2=C(O)CC(C)(C)CC2=O)=C(O)C1	1.52	-0.36
COC(=O)C1=CN(C)C=C(C(=O)OC)C1c1ccccc1Cl	0.7	-0.2
Cc1ccc(C(=O)NNC(=O)CCn2nnc3ccccc32)cc1	1.31	0.64
CC1CN(C(=O)CCC(=O)NCc2ccccc2)c2cc(Cl)ccc2O1 (stereo not given)	0.74	-1.78
CN(C)CCOC(=O)NC12CC3CC(CC(C3)C1)C2	0.18	-0.23
Cc1cc(NC(=O)Cn2cc(C(F)(F)F)cc(Cl)c2=O)no1	0.47	1.87
Cc1ccsc1C(=O)NNC(=O)Nc1ccc(Cl)c(Cl)c1	0.42	-3.39
CCOC(=O)c1cc(C)nn1-c1nc(Cl)cc(OC)n1	1.57	0.61
CCOC(=O)Nc1ccc2c(COC(=O)CNS(=O)(=O)c3cccc(Br)c3)cc(=O)oc2c1	0.1	1.02
Cc1oc(-c2ccccc2F)nc1CS(=O)CC(=O)NCc1cccs1 (stereo not given)	0.93	0
COc1c(OC2OC(C(=O)O)C(O)C(O)C2O)cc(O)c2c(=O)cc(-c3ccccc3)oc12 (stereo not given)	1.41	-0.04
O=C(C1CCCO1)N1CCN(C(=S)Nc2ccccc2F)CC1 (stereo not given)	0.97	0.42
COc1ccc(C(=O)NC(C)c2nnc(SCC(=O)NC3CCCC3)n2C)cc1 (stereo not given)	0.58	-0.07
CC(C)Nc1nc(NC(C)C)nc(NS(=O)(=O)c2ccc(N)cc2)n1	0.22	-0.07
CCCCS(=O)(=O)N1CCCC(C(=O)N2CCOCC2)C1 (stereo not given)	1.39	-1.71
O=C(CC1C(=O)NCCN1Cc1cccc(F)c1)NCCCCCN1CCOCC1 (stereo not given)	0.69	0.25
O=C1CCCC(O)=C1N=Nc1ccc(Cl)c(Cl)c1	0.88	-0.2
CCOc1cccc(CNCc2cccnc2)c1OCc1ccccc1	1.28	-0.36
O=C1COc2ccc(S(=O)(=O)NCc3ccccc3)cc2N1	1.01	-0.67
CN(C)c1ccc(NC(=S)NC23CC4CC(CC(C4)C2)C3)cc1	0.58	-0.55
COc1ccc2c(c1OC)C(=O)O[C@@H]2[C@H]1c2c(cc3c(c2OC)OCO3)CCN1C	0.23	-0.4
The list goes on:
SMILES	KCNQ2 enhance	KCNQ2 enhance baseline
COc1ccc(C(C)(C)C)cc1NC(=O)CCNC(=O)c1ccco1	0.46	0.06
NC(=O)CC(NC(=O)Cc1cccc2ccccc12)c1ccc(N2CCC(N3CCCC3)CC2)c([N+](=O)[O-])c1 (stereo not given)	0.35	-0.26
CCOC(=O)C1(CCCc2ccccc2)CCN(C(=O)CCOC)CC1	0.19	0.36
O=C(COc1ccccc1C(=O)NCc1ccncc1)Nc1ccc(Br)cc1	0.17	0.15
[O-]/C(=C(\C(=S)Nc1cccc2ccccc12)[n+]1ccccc1)c1ccc(Cl)s1	0.05	0.12
O=C(c1ccc(-c2nc3ccccc3s2)s1)N1CCOCC1	0.72	-0.06
C/C(=N\NC(=O)c1ccc(N(C)C)cc1)c1ccc(C)cc1C	0.33	0.43
COc1ccc(CCC(=O)NC(C)c2ccccc2)cc1OC (stereo not given)	0.93	-1.67
COc1cccc(OC)c1C(=O)NNC(=O)c1cccnc1	1.51	2.35
CCOc1ccc(/C=N/NC(=O)c2nnn(-c3nonc3N)c2-c2cccs2)cc1	0.26	0.55
CCCCCC(=O)Nc1c(-c2ccc(OC)cc2)c(=O)c2ccccc2n1C	0.37	1.16
CN(C)c1ccc(Nc2nc(-c3cccnc3)cs2)cc1	0.18	-1.47
COc1ccc(OCc2nc3ccc(S(=O)(=O)Nc4ccccc4Cl)cc3[nH]2)cc1	0.65	-0.4
Cc1nnc2c(NC(C)C)nc3ccccc3n12	1.86	-0.98
CCc1cccc(C)c1NC(=O)CSc1nnc(Cc2csc(C)n2)o1	1.26	-2.89
CC(=O)N/N=C\c1cccc(OC/C=C/c2ccccc2)c1	1.61	0.09
Fc1ccc(Nc2cccc3nccnc23)cc1	0.41	-0.56
Cc1ccc(NS(=O)(=O)c2cc(C(=O)NCc3ccccn3)ccc2Cl)cc1	0.35	0.29
Cc1ccc(C(=O)OCC(=O)NC2CCCC2)cc1C	0.78	2.06
C=C(Cl)COC(=O)C1C2C=CC(C2)C1C(=O)O (stereo not given)	0.18	0.47
O=C(Nc1ccc(F)cc1)c1cccnc1Oc1ccccc1	0.51	-0.56
CCOC(=O)C1[C@H]2C(=O)N(CCCOC)C[C@]23C=C[C@H]1O3 (stereo not given in full)	0.33	0.72
Cc1ccc(-n2nc3cc(C)c(NC(=S)NC(=O)/C=C/c4ccco4)cc3n2)cc1	0.46	-0.06
CCN(CC)CCNC(=O)c1cn(CCOC)c(=O)c2c1c1ccccc1n2C	0.56	-0.72
COc1ccccc1Nc1cc(C(=O)NCc2cccnc2)c2ccccc2n1	0.83	-1.14
Next part
SMILES	KCNQ2 enhance	KCNQ2 enhance baseline
CC(C)Cc1nnc(NC(=O)CSc2nc(-c3ccccc3)cc(=O)[nH]2)s1	1.27	-0.54
Fc1ccc(F)c(CNc2ncnc3cc(Cl)ccc23)c1	0.12	-0.02
COc1ccc(C(=O)NC2CCN(C(=S)Nc3cccc(C)c3)CC2)cc1	0.58	-0.18
COC(=O)CCC(=O)c1oc2ccccc2c1NC(=O)CCCN1C(=O)c2ccccc2C1=O	0.01	-0.61
COc1ccccc1CNC(=O)C(C)Oc1ccccc1 (stereo not given)	0.47	-0.44
COC(=O)N/N=C/c1ccc(OC(=O)c2ccco2)c(OC)c1	0.16	0.46
CCCn1nnnc1COc1ccc(C(N)=O)cc1	0.89	0.04
O=C(Nc1cc(C(F)(F)F)ccc1F)C1CCCC1	3.46	0.8
C=CCn1c(=N)n(CC(O)c2ccco2)c2ccccc21 (stereo not given)	0.27	0.92
COc1ccc(-n2nc(C(=O)NCc3ccco3)c3c4ccccc4n(C)c3c2=O)cc1Cl	0.1	-1.03
COc1ccc(OC)c(NC(=O)c2nnn(Cc3ccc(Br)cc3F)c2N)c1	1.04	-3.93
COc1ccc(Oc2nc(Oc3ccc(OC)cc3)nc(Oc3ccc(OC)cc3)n2)cc1	0.01	0.16
Cn1ncc(Br)c1C(=O)Nc1ccc(Cl)cn1	1.23	-0.22
COc1cccc(NC(=O)Nc2cc(C)ccc2F)c1	1.79	-0.4
COCCNC(=O)COC(=O)/C=C/c1cnc2ccccc2n1	0.5	-0.04
CCOCCn1c(CN2CCN(c3ccccc3)CC2)nc2c1c(=O)n(C)c(=O)n2C	0.16	0.98
O=S(=O)(NCC1CCCO1)c1cccc(C(F)(F)F)c1 (stereo not given)	1.37	-0.66
O=C(c1sc2cccc(Cl)c2c1Cl)N1CCN(CCc2ccccn2)CC1	0.71	0.92
COc1cccc(/C=C2/C(=O)NN(c3ccc(F)cc3)C2=O)c1	1.37	-0.89
COCCNC(=S)N1CCN(Cc2ccc3c(c2)OCO3)CC1	1.64	-0.34
CC(OC(=O)CN(C)S(=O)(=O)c1ccc(Cl)cc1)C(=O)Nc1cccc(Cl)c1 (stereo not given)	0.33	-0.4
CC(=O)Nc1ccc(NC(=O)Cn2ccc([N+](=O)[O-])n2)cc1	0.05	1.49
CCOC(=O)C1(CCOc2ccccc2)CCN(Cc2ccc(O)c(OCC)c2)CC1	1.7	0.59
Cn1cccc1C1C=C(c2ccc(C(C)(C)C)cc2)Nc2ncnn21 (stereo not given)	1.33	0.12
COc1ccc(C(=O)NCC(=O)OCC(=O)NCc2cccs2)cc1	1.54	-0.13

Next part; the last 2 above are carried over.
SMILES	KCNQ2 enhance	KCNQ2 enhance baseline
Cn1cccc1C1C=C(c2ccc(C(C)(C)C)cc2)Nc2ncnn21 (stereo not given)	1.33	0.12
COc1ccc(C(=O)NCC(=O)OCC(=O)NCc2cccs2)cc1	1.54	-0.13
O=C(CN1C(=O)CCC1=O)Nc1nc(-c2ccc(Cl)s2)cs1	1.38	-0.26
COc1ccc(-c2cc(-c3cc(C)ccc3O)[nH]n2)cc1	0.62	-0.12
Cc1ccc(C(=O)NCCNC(=O)COc2ccccc2Cl)cn1	0.01	1.55
COc1cccc(CC2(CO)CCCN(Cc3c(C)cc(C)cc3-n3cccn3)C2)c1 (stereo not given)	0.57	-0.58
CCOC(=O)c1ccc(OCC(=O)c2ccc(O)cc2O)cc1	0.31	0.04
O=C(CCN1C(=O)c2cccc3cccc(c23)C1=O)N1CCN(Cc2ccc3c(c2)OCO3)CC1	1.48	-0.02
Cc1ccc(NC(=O)Nc2ccc3c(c2)C(=O)OC3)cc1Cl	0.01	1.67
O=C(CSc1nnc(-c2ccc(F)cc2)o1)N1CCN(C(=O)c2ccco2)CC1	1.25	0.98
Nc1ccc(C(=O)OCC(=O)N2CCOCC2)cc1[N+](=O)[O-]	1.04	0.02
CCc1c(C2(O)CCCCC2)[nH]c2ccc(C(=O)OC)cc12	0.47	-1.12
O=C(N/N=C/c1cn[nH]c1-c1ccc(F)cc1)c1ccncc1	0.98	0.39
Cc1[nH]c2ccccc2c1C(=O)COC(=O)C1CCC(=O)N1 (stereo not given)	0.88	-0.77
O=C(NCc1n[nH]c(=S)n1-c1cccc(Cl)c1)c1cccs1	2.55	-1.66
NC(=O)CSc1nc2c(sc(=S)n2-c2ccccc2)c(=O)[nH]1	1.51	-0.25
O=S(=O)([O-])CCC[n+]1ccc(Oc2ccccc2)cc1	0.54	1.4

3 compounds picked at random from the list so far:
SMILES	KCNQ2 enhance	KCNQ2 enhance baseline
COc1ccc(NC(=O)C2CCN(S(=O)(=O)c3c(C)noc3C)CC2)cc1Cl	0.68	-3.14
CCn1cc(/C=N/NC(=O)c2ccc3c(c2)OCO3)c(C)n1	6.3*	0.52*
COc1cc(OC)cc(C(=O)Nc2ccc(Cn3ccnc3)cc2)c1	0.47	0.65
